HIV Env fusion – inhibitors of HIV-1 Env-driven cell-cell fusion, primary screen, HeLa-JRFL effector, CEM21 target cells, luciferase; 1.1% of 360,000 active; AID 651610, 2012; inhibition, % at 12.3 µM;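 active = mean replicate inhibition score of at least 50 and every replicate individually at or above 50; inconclusive = only one of the two criteria met; inactive = mean below 50 and not all replicates reaching 50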;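 also: 0% = plate neutral controls and 100% = maraviroc near 300 nM; one replicate is shown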
MT1-MMP act inh – blockers of MT1-MMP proenzyme processing, primary screen, HT1080 RFP-PRO-GFP cells, GFP/RFP fluorescence; Matrix metalloproteinase-14 (Homo sapiens), P50281; 0.061% of 360,000 active; GFP/RFP ratio change, % at 20 µM; GFP/RFP ratio fluorescence, overnight; percent of plate control window, DMSO zero; AID 651647, 2012;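 active = GFP/RFP ratio change of at least 30% with cell ATP level not reduced by more than half and red fluorescence within 50% of control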; also: strong numbers were not always called active
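Assay system – RFP-PRO-GFP reporter HT1080 cells · Compound dosing – single dose of 20 µM compound, 1% DMSO final · Incubation – overnight compound exposure at 37 °C · Measure – GFP/RFP fluorescence ratio · Benchmarks – DMSO wells and RFP-L50D-GFP cells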
MT1-MMP act inh RFP – second read-out of MT1-MMP act inh, no call of its own (marks repeat the call); RFP signal change, %; measured here: RFP expression control read;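 0 = vehicle wells; hits needed this value within 50% of zero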
Starred values were filed as active, the others as inactive; i = inactive; ? = inconclusive; [ ] = another dose, or the depositor's remark. Some of the compounds tested. The share of hits here may be higher or lower than overall.

Compound | MT1-MMP act inh RFP | HIV Env fusion | MT1-MMP act inh
COc1ccc(C(C(=O)NCc2ccccc2)n2c(-c3ccncc3)nc3ccccc32)cc1 (stereo unspecified) | -1.6 | -9.9 | 1.3
O=C(CN1C(=O)NC2(CCCCC2)C1=O)N1CCN(S(=O)(=O)c2ccc(F)c(F)c2F)CC1 | 2.7 | -17.2 | -3.3
O=C1NC(=O)N2CCSC2(Cc2ccccc2)N1 (stereo unspecified) | 4.7 | 24.3 | 7.4
CC(=O)Nc1ccc(CNc2nc3cc(-c4ccccc4C)sc3c(=O)n2C)cc1 | -21.3 | 26.9 | 3.3
O=P1(O)Cc2ccccc2-c2ccccc21 | 0.4 | 10.8 | -0.6
CCOC(=O)[C@]12CCCC=C1N(Cc1ccccc1)C(=O)[C@H](CC(=O)NCc1cccc3ccccc13)C2 | -4.2 | 14.3 | -5.3
Cn1cccc1C(=O)NCc1ccccn1 | -0.7 | -215.5 | -2.5
CCCCCC(=O)Nc1cc(S(=O)(=O)O)cc2cc(S(=O)(=O)O)cc(O)c12 | 1.5 | 3.4 | -2.7
CCOC(=O)c1cc(-c2ccc(N3C(c4ccsc4)=Cc4ccccc4C3CC(C)=O)cc2)cc([N+](=O)[O-])c1 (stereo unspecified) | 0.5 | -14.3 | 2.1
O=C1N2CCCCC1(Sc1ccccc1)CCC2 (stereo unspecified) | 0.9 | 3.1 | 1.8
CC1(c2nnnn2Cc2ccccc2)CCC(=O)N1Cc1cccnc1 (stereo unspecified) | 1.5 | -5.7 | -0.3
CC(NCCCSc1ccccc1)C(O)c1ccc(O)cc1 (stereo unspecified) | 6.6 | -18.9 | 3.1
CCCCCCCCN1C(=O)[C@H](CC(=O)N2CCN(C(=O)OCC)CC2)C[C@@]2(C(=O)OC)CC(C)(C)CC=C12 | -11.8 | 18.4 | -3.6
C#CCNC(=O)C[C@@H]1C[C@@]2(C(=O)OC)CC(C)(C)CC=C2N(Cc2cccc3ccccc23)C1=O | -14.9 | 17.9 | -7.8
CC(C)NC(=O)C1(C)CN(S(C)(=O)=O)CC(=O)N1Cc1cccc(C(F)(F)F)c1 (stereo unspecified) | 7.0 | -6.7 | 2.3
O=S1(=O)N[C@@H](Cc2ccccc2)COc2cc(N3CCN(Cc4ccccc4F)CC3)ccc21 | 1.2 | ? | 3.3
CO[C@H]1CN(C)C(=O)c2ccc(NC(=O)C3CCC3)cc2OC[C@H](C)N(CC2CCCCC2)C[C@@H]1C | -0.2 | 91.9*[16.7 µM] | -2.0
CCCCNC(=O)C1C(c2ccc(C(F)(F)F)cc2)=Nc2ccccc2N1C(=O)C1CCN(C(C)=O)CC1 (stereo unspecified) | 0.3 | 8.6 | -1.2
O=C(NCc1ccccc1)C1c2ccccc2OCC(=O)N1Cc1ccccc1 (stereo unspecified) | 4.0 | -11.4 | 3.0
COC1=CC(=O)OC(c2cccc(Cl)c2)C1 (stereo unspecified) | 3.6 | -5.7 | 0.6
O=C(NC1CCCC1)C1C(c2ccc(C(F)(F)F)cc2)=Nc2ccccc2N1C(=O)c1cc2ccccc2[nH]1 (stereo unspecified) | -5.1 | 14.7 | -2.4
COC(=O)[C@]12CCCCC=C1N(Cc1ccccc1)C(=O)[C@H](CC(=O)NCC1CCCCC1)C2 | -2.9 | -49.0 | 1.9
C#CCNC(=O)C[C@@H]1C[C@@]2(C(=O)OCC)CCC=C2N(Cc2ccc3c(c2)OCO3)C1=O | 4.9 | 0.5 | 2.3
CC(C)C[C@@H](CN1CCC[C@H]1CN1C(=O)C(=O)NC[C@@H]1Cc1ccc(O)cc1)N1C[C@H](Cc2ccc(O)cc2)N(CC2CCCCCC2)C(=O)C1=O | -1.2 | -24.9 | -3.8
CC(C)NC(=O)C1C(c2ccccc2)=Nc2ccccc2N1C(=O)c1ccc(C(F)(F)F)cc1 (stereo unspecified) | -8.1 | 25.0 | -6.1
CSC1(SC2=NCCN2)SC2(NCCN2)S1 | 2.3 | -6.5 | 2.2
CN1CCC(N2CCN(C3CN(Cc4cn(Cc5ccc(F)cc5)nn4)S(=O)(=O)C3)CC2)CC1 (stereo unspecified) | 5.7 | -7.5 | 2.3
COC(=O)c1cc(=O)c2c(ccc3oc(=O)ccc32)[nH]1 | 7.6 | -3.1 | 4.0
O=[N+]([O-])c1ccccc1N=Nc1c(O)[nH]c2ccc(F)cc12 | 2.1 | -73.2 | 6.1
N=C1C=CC(=C(c2ccc(N)cc2)c2ccc(N)cc2)C=C1 | -15.8 | ? | 93.5

The closing two entries of the section before come first, to join the parts.
Compound | MT1-MMP act inh RFP | HIV Env fusion | MT1-MMP act inh
O=[N+]([O-])c1ccccc1N=Nc1c(O)[nH]c2ccc(F)cc12 | 2.1 | -73.2 | 6.1
N=C1C=CC(=C(c2ccc(N)cc2)c2ccc(N)cc2)C=C1 | -15.8 | ? | 93.5
CC1(C)Cc2cccc(OC(=O)NC3CCCCC3)c2O1 | 1.8 | -1.4 | 1.5
CCCCCc1c(-c2ccc(F)cc2)ncn1CCc1ccccc1OC | -29.1 | 23.8 | -5.0
COc1ccc(C2C(C)C(=O)C(C)C(c3ccc(OC)cc3)N2N=O)cc1 (stereo unspecified) | -0.5 | 0.3 | -3.2
CC1(C(=O)NCc2ccccc2)CSCC(=O)N1CCCn1ccnc1 (stereo unspecified) | 4.7 | -4.9 | 3.5
O=C1c2ccccc2C(c2nnnn2Cc2ccccc2)N1Cc1cccnc1 (stereo unspecified) | 2.1 | -8.1 | 5.0
CCC(c1nnnn1-c1ccc2c(c1)OCCO2)N1CCN(CC)CC1 (stereo unspecified) | 1.6 | -61.2 | 0.3
O=S1(=O)CC(N2CCN(CCO)CC2)CN1Cc1cn(Cc2cccc(C(F)(F)F)c2)nn1 (stereo unspecified) | 5.7 | 1.5 | 3.9
CN(Cc1ccncc1)C(=O)[C@@H]1CCCN1C(=O)[C@@H]1CCCN1 | 3.0 | -8.7 | -5.6
CN1CCN(C2CN(Cc3cn(Cc4cccc(C(F)(F)F)c4)nn3)S(=O)(=O)C2)CC1 (stereo unspecified) | 6.5 | -38.8 | 4.0
N=c1c2ccccc2nnn1-c1ccccc1[N+](=O)[O-] | -1.3 | -32.9 | 1.5
O=C(NC1CCCCC1)OC1CC2CC1[C@H]1CCCCN1C2=O (stereo partly specified) | 4.1 | -8.8 | 3.2
COCCN1C(=O)CCC1(C)c1nnnn1-c1ccc2c(c1)OCCO2 (stereo unspecified) | 5.9 | -30.5 | 5.5
CCCCCCCCN1C(=O)[C@H](CC(=O)NCc2ccc(OC)c(OC)c2)C[C@@]2(C(=O)OCC)CCC=C12 | -13.6 | 34.8 | 2.7
CNc1nc(Oc2cccc(NC(C)=O)c2)c2sccc2n1 | -5.5 | -23.8 | -2.9
C[n+]1ccc2[nH]c3ccccc3c2c1 | 4.1 | i | 3.8
COCCCn1cc(CN2CC(N3CCN(CCO)CC3)CS2(=O)=O)nn1 (stereo unspecified) | 0.7 | -39.7 | 1.0
CC1(c2nnnn2Cc2ccccc2)CCC(=O)N1CCCn1ccnc1 (stereo unspecified) | 2.5 | -4.9 | -0.5
CN(C)CC1CC/C(=C\c2ccc(O)cc2)C1=O (stereo unspecified) | -5.5 | -58.5 | 1.4
CCOC(=O)c1ccc(CN2CCCC(C)(C(=O)NCCOC)C2)cc1 (stereo unspecified) | 3.1 | 19.5 | 4.0
Cc1ccc(S(=O)(=O)N2CC3C(=O)C[C@@H](c4ccccc4Cl)N(S(=O)(=O)c4ccc(C)cc4)C3CC2c2ccccc2)cc1 (stereo partly specified) | -1.5 | -113.6 | 11.7
O=C(NCc1ccccc1)C(c1ccccc1F)n1c(=O)c(-c2ccccc2)nc2ccccc21 (stereo unspecified) | -6.1 | -8.7 | 0.4
CC(=O)Nc1ccc(C=NNc2nnc(NN=Cc3ccc(NC(C)=O)cc3)c3ccccc23)cc1 | -0.7 | 14.8 | 2.5
CSCCC(c1nc2ccccc2[nH]1)n1c(-c2ccc3ncccc3c2)nc2ccccc21 (stereo unspecified) | -2.6 | -15.0 | -2.6
N#CC1(C#N)OC12CCS(=O)(=O)c1ccccc12 (stereo unspecified) | 2.7 | 15.1 | -3.3
CCCCOCCCNC(=O)C[C@@H]1C[C@@]2(C(=O)OCC)CCCC=C2N(CCc2ccc(OC)c(OC)c2)C1=O | 1.1 | -1.5 | 1.1
CC(C)C[C@@H](CN1CCC[C@H]1CN1C(=O)C(=O)NC[C@@H]1Cc1ccccc1)N1C[C@H](Cc2ccccc2)N(CCc2ccccc2)C(=O)C1=O | -5.0 | -343.3 | 6.7
COC(=O)C1=CN(c2cccc(OCc3ccccc3)c2)C(N)=C(C#N)C1c1ccc(-c2ccccc2)cc1 (stereo unspecified) | 0.1 | 13.1 | -0.9
COC(=O)[C@@]1(Cc2ccc(OC)cc2)[C@H]2c3cc(C(=O)N4CCCC4)n(CCc4ccc(OC)c(Br)c4)c3C[C@H]2CN1C(=O)c1ccccc1 | -32.1 | -18.5 | -38.6
CCCn1c(=S)[nH]c2cc(C(=O)N3CCN(c4ccccc4)CC3)ccc2c1=O | 4.3 | -4.7 | 4.1
COc1ccc(CCN2C(=O)c3ccccc3C2c2nnnn2C(C)C)cc1OC (stereo unspecified) | 6.9 | -10.5 | 5.4
CCOC(=O)C1CCCN(C(=O)Cc2ccc(OC)c(OC)c2)CC1 (stereo unspecified) | -5.8 | -19.4 | 12.5
Cc1cccc(C)c1NC(=O)C1C(c2ccc3c(c2)OCO3)=Nc2ccccc2N1C(=O)c1ccccc1 (stereo unspecified) | -11.8 | -15.2 | -13.2
COc1cc([N+](=O)[O-])ccc1-c1ccc(/C=C2\C(=O)ON=C2c2ccccc2)o1 | -1.5 | -14.3 | -11.6
Cc1ccccc1CN1C(=O)CSCC1(C)C(=O)Nc1c(C)cccc1C (stereo unspecified) | 4.2 | -35.0 | 7.3
COc1ccc(Cc2c(C3CCCCC3)nc3cc(C)c(Br)c(C)n23)c(C)c1 | -8.1 | 17.2 | -5.1
COc1ccccc1Cc1c(C2CCCCC2)nc2cc(C)c(Br)c(C)n12 | -7.7 | 22.6 | 0.2
O=C1OC2C(O)COC23OC(O)CCC13O (stereo unspecified) | 6.2 | -1.3 | 1.6
CC(C)C[C@H]1CN([C@@H](Cc2ccccc2)CN2CCC[C@H]2CN2C(=O)C(=O)NC[C@@H]2Cc2ccc(O)cc2)C(=O)C(=O)N1CC1CCCCC1 | -3.5 | 5.0 | -3.4
COc1ccccc1CNc1nc2cc(-c3sccc3C)sc2c(=O)n1C | -11.4 | 28.8 | -3.6
CCC(=O)OCOc1ccc(/C=C2/CCC(CN(C)C)C2=O)cc1 (stereo unspecified) | -0.6 | 28.3 | -2.1
Cc1ccc(C=NNC(=O)C(=O)Nc2ccc(Cl)c([N+](=O)[O-])c2)cc1 | 4.5 | 10.8 | 5.6
CCn1cc(C2C3=C(CC(C)(C)CC3=O)N(c3ccc(C)cc3)C3=C2C(=O)CC(C)(C)C3)c(C)n1 | -0.1 | -1.6 | 4.4
S=C(NCc1ccccn1)NN=Cc1ccccn1 | -11.7 | -1.1 | -2.1
COc1ccc(C2(C)NC(=O)N(CC(=O)N(c3ccccc3)C3CCS(=O)(=O)C3)C2=O)cc1 (stereo unspecified) | 0.7 | -17.1 | 4.1
Cc1[nH]c2ccc(C(=O)OC(C)C(=O)N(C)C3CCCCC3)cc2c1C (stereo unspecified) | -10.0 | -5.8 | 0.3
CCCCCCCCN1C(=O)[C@H](CC(=O)NCCc2ccccc2OC)C[C@@]2(C(=O)OCC)CCC=C12 | -5.8 | -0.3 | -0.6
O=C(NCc1ccccc1)C(C1CC1)n1c(CSCCOc2ccccc2)nc2ccccc21 (stereo unspecified) | -3.7 | 6.5 | -0.9
CCc1nc(N)nc(N)c1-c1ccc(Cl)c([N+](=O)[O-])c1 | -0.2 | 5.9 | -5.8
Cc1ccc(S(=O)(=O)NC[C@H]2O[C@@H](n3ccc(N)nc3=O)[C@H](O)[C@@H]2O)s1 | 6.5 | -0.7 | 3.8
O=C1NC[C@H](CCCCN2C[C@H](Cc3ccc(O)cc3)N(CCc3ccc(O)cc3)C(=O)C2=O)N(CC2CCCCC2)C1=O | 2.9 | 16.9 | 2.9
Cc1ccc(S(=O)(=O)N2CC=C(N)N2)cc1 | 2.4 | -45.1 | 4.6
CCc1nnc(NC(=O)[C@@H](NS(=O)(=O)c2ccc3c(c2)OCCO3)C(C)C)s1 | 0.0 | -10.6 | -0.4
COc1ccc(C(=O)C(=O)N2CCC(Cc3ccccc3)CC2)cc1OC | 0.0 | -3.4 | 11.1
O=C1NC[C@H](CCCCN2CCN(CCC3CCCCC3)C(=O)C2=O)N(CCC2CCCCC2)C1=O | 5.1 | -2.6 | 5.7

Screening data from PubChem BioAssay.
